hNpr1 antagonist – human Npr1 receptor antagonism; P16066; HEK293 hNpr1 GloSensor cGMP, ANP-stimulated luminescence; Potency, µM (top dose mostly 46.3 µM), without a hit: at the highest dose activity change, negative = inhibition, usual class: inhibitors; 1.6% of 76,000 active; AID 1347048; active = well fitted inhibition curve with a large enough effect; inconclusive = small, poorly fitted or top-dose-only effect; inactive = no such curve, though single readings can be large or run the other way;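 further: nearly all actives have a fitted effect of over 60% in size; nearly all hits also lower the signal before the agonist is added; a reference antagonist and vehicle were the controls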
Target sequence (P16066 whole entry, looked up): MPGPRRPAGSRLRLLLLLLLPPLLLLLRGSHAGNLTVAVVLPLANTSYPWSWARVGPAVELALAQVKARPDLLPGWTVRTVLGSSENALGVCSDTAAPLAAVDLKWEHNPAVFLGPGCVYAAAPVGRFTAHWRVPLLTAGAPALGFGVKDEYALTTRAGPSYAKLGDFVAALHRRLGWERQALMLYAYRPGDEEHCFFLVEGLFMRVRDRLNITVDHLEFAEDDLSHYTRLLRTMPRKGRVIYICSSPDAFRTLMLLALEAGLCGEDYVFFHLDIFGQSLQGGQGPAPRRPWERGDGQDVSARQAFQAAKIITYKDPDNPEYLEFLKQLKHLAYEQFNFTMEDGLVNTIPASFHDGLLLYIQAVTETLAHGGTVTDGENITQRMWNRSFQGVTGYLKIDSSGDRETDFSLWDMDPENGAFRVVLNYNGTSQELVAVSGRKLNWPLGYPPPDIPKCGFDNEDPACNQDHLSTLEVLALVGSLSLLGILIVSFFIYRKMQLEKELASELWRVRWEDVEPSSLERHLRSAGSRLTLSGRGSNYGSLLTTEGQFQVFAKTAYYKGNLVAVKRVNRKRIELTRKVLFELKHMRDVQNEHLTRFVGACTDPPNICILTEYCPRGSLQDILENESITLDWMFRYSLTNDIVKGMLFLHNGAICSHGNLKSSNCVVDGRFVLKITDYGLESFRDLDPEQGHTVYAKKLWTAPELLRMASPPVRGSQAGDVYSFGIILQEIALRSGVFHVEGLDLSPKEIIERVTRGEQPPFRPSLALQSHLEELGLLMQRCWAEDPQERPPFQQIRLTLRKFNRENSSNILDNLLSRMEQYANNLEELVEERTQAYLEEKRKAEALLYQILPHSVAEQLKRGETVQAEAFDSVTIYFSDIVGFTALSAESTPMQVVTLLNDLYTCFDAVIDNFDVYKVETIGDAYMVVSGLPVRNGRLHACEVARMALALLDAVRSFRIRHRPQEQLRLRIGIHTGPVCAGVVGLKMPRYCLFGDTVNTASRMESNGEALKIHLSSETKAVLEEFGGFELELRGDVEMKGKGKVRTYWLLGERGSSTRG
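HEK293 cells stably expressing human Npr1 and cGMP GloSensor pGS-40F, loaded 2 h with 2% GloSensor reagent, given compound 30 min at room temperature. Luminescence read before and 20 min after 0.1 nM hNppA.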
* marks the source's active call; other numbers are inactive results; ? = inconclusive; [ ] = another dose, or the depositor's remark. On the % scale 0 is the no-effect control and ±100 the full control effect; potency means the concentration at half of the fitted maximal effect.

hNpr1 antagonist	SMILES
-5.0%	O=C(NC1CC1)c1nc(-c2cccc(C(F)(F)F)c2)c2cnccn12
8.4%[70.6 µM]	O=C1Nc2ccccc2CC12CCN(Cc1cncs1)CC2
-12.9%	COc1cccc(-c2cc3c(=O)n(CCNC(=O)c4c(F)cccc4F)ccn3n2)c1
5.0%	O=C1c2c(nc(CN3CCN(c4ccccn4)CC3)n2Cc2ccccc2)NCCN1CC1CC1
1.3%	COc1ccc2[nH]c3c(c2c1)CCNC31CCN(S(=O)(=O)c2cn(C)cn2)CC1
-1.4%	CCNC(=O)N1CC(Oc2cccc(-c3nc(C)no3)c2)C1
-2.7%	COc1ccc(CNC(=O)C2CCc3sc(C(=O)N(C)C)cc3C2)cc1 (stereo unspecified)
-8.8%[70.6 µM]	c1cc2c(cc1-c1cn3c(n1)CO[C@@H](CNC1CCOCC1)C3)OCCCO2

An excerpt of these results, field by field:
Compound: O=C1Nc2ccccc2CC12CCN(Cc1cncs1)CC2
- hNpr1 antagonist: 8.4%[70.6 µM]
Compound: COc1ccc(CNC(=O)C2CCc3sc(C(=O)N(C)C)cc3C2)cc1 (stereo unspecified)
- hNpr1 antagonist: -2.7%
Compound: O=C1c2c(nc(CN3CCN(c4ccccn4)CC3)n2Cc2ccccc2)NCCN1CC1CC1
- hNpr1 antagonist: 5.0%
Compound: COc1ccc2[nH]c3c(c2c1)CCNC31CCN(S(=O)(=O)c2cn(C)cn2)CC1
- hNpr1 antagonist: 1.3%

Further entries
hNpr1 antagonist	SMILES
2.6%	CCn1ccnc1CN(C)c1cc(C2CC(N)C2)nc(COC)n1 (stereo unspecified)
5.01µM*	OCc1ccnc(-c2ccc(-c3ccn[nH]3)cc2)c1
-27.9%	CC1=NS(=O)(=O)N(Cc2ccccc2)C=C1C(=O)OCc1nc(-c2ccc3c(c2)OCO3)no1
12.7%	NC(=O)[C@H](Cc1ccc(O)cc1)NC(=O)C1=C[C@@H](NC(=O)Nc2ccc(OC(F)(F)F)cc2)[C@@H](O)[C@H](O)C1
3.8%	CC(=O)N1CCN(C(=O)C[C@@H]2c3nc(NC(=O)C(C)(C)C)sc3C[C@@H]3[C@](C)(CO)[C@H](O)CC[C@]32C)CC1
-1.7%	COCc1noc(CCNC(=O)C2CCN(C(=O)C3CC3)CC2)n1
9.4%	CN(C)C[C@@H]1CN(S(C)(=O)=O)C[C@H]1NC(=O)c1ccc2nc[nH]c2c1
3.8%	CCN(CC1CCCN(CCc2cccc(OC)c2)C1)C(=O)CN1CCCC1=O (stereo unspecified)
3.1%	CC1(c2ccccc2)N(Cc2ccccc2F)C(=O)OC12CCN(C(=O)CN1CCOCC1)CC2 (stereo unspecified)
4.0%[70.6 µM]	CN1CCCC2(C1)CN(Cc1cccnc1)c1ccc(C(=O)Nc3ccccc3)cc12 (stereo unspecified)
-13.4%[70.6 µM]	O=C(C[C@@H]1CCNC[C@@H]1Cc1cc(-c2ccc(F)cc2)on1)NCc1ccco1
-0.2%	CS(=O)(=O)N1C[C@@H](COc2ccncc2)[C@H](c2ccccn2)C1
10.0%	Cn1ncc(N2CCCC(CC(=O)NCc3cccs3)C2)cc1=O (stereo unspecified)
-0.8%	Cc1ccc(NC(=O)N2CCc3c(c4ccccc4n3C)C2)cc1
-0.1%	O=C(Nc1ccnn1C1CCN(Cc2ccc(OC3CCCC3)cc2)CC1)C1CC1
4.7%	CCCN1C(=O)NC(Cc2nc(-c3cccnn3)no2)C1=O (stereo unspecified)

A second format for some results above.
compound	hNpr1 antagonist
CS(=O)(=O)N1C[C@@H](COc2ccncc2)[C@H](c2ccccn2)C1	-0.2%
Cn1ncc(N2CCCC(CC(=O)NCc3cccs3)C2)cc1=O (stereo unspecified)	10.0%
Cc1ccc(NC(=O)N2CCc3c(c4ccccc4n3C)C2)cc1	-0.8%
O=C(Nc1ccnn1C1CCN(Cc2ccc(OC3CCCC3)cc2)CC1)C1CC1	-0.1%
CCCN1C(=O)NC(Cc2nc(-c3cccnn3)no2)C1=O (stereo unspecified)	4.7%

Next part
hNpr1 antagonist	SMILES
-1.8%	COc1ccccc1-c1ccnc(N[C@H]2CO[C@H]3[C@@H]2OC[C@@H]3NC(=O)COc2ccccc2)n1
3.1%	CCCCCC(=O)Nc1nc2c(s1)C[C@@H]1[C@](C)(CO)[C@H](O)CC[C@@]1(C)[C@@H]2CC(=O)N[C@@H](CO)CC(C)C
-1.2%[70.6 µM]	O=C(c1ccccc1)N1CCc2c(n(Cc3ccccc3)n(-c3ccccc3)c2=O)C1
1.1%[70.6 µM]	CCN(CC)C(=O)[C@@H]1CCCN1C1(C(=O)NC)COC1
2.4%[70.6 µM]	COCCNc1c(-c2noc(C)c2C(=O)Nc2ccc(OC)cc2)cnn1C
-2.8%	O=C(c1ccoc1)N1CCC(N2C(=O)C3(CCCCC3)C2c2ccncc2)CC1 (stereo unspecified)
0.0%	CCCNC(=O)N1CCC2(CC1)CC(N(C(=O)c1ccccc1)C1CC1)CCO2 (stereo unspecified)
-3.2%	Cc1cc(C)n(CCCN(C)C(=O)C2C3C(=O)N(CCC(C)C)C[C@@]34C=C[C@@H]2O4)n1 (stereo partly specified)
-2.4%	CC(C)CN1CCCC(COc2ccccc2C(=O)NC2CC2)C1 (stereo unspecified)
-3.1%	CNC(=O)[C@@H]1CN(C(=O)Cc2c(C)noc2C)C[C@H]1COC
-15.9%	COc1ccccc1-c1nc(C(=O)NCc2ccc3c(c2)OCO3)n2ccncc12
-0.5%[70.6 µM]	CCc1cnc(N2CCC(COc3ccc4c(cnn4CCC(=O)O)c3)CC2)nc1
1.6%	COc1ccc(C(=O)NCCC2CCN(C(=O)Nc3ccc(C)cc3)CC2)cc1OC
1.7%	CN1CC[C@H]2CN(C(=O)CCCCc3ccccc3)C[C@@]2(C(=O)O)C1
-9.1%	CN1c2cc(C(=O)NCc3ccccc3C(F)(F)F)ccc2C(=O)N2CCCCC21 (stereo unspecified)
8.7%	Cc1nn(C)c(C)c1CCC(=O)NC1CCc2nnc(C3CC3)n2CC1 (stereo unspecified)
1.8%	O=C(NCc1ccc(F)cc1)N1CCC(Oc2ncccc2C(=O)N2CCCCC2)C1 (stereo unspecified)
6.2%	Cc1cc(Cl)ccc1OCCN1CCN(CC2(O)CCCNC2)CC1 (stereo unspecified)
2.0%[70.6 µM]	CN(Cc1ccc(OC(F)(F)F)cc1)C1CCCc2ccccc21 (stereo unspecified)
2.8%	Cc1nnc(NC(=O)C2c3ccccc3C(=O)N(CC(C)C)C23CCCCC3)s1 (stereo unspecified)
-13.5%[70.6 µM]	O=C(Nc1cccc(Cl)c1)C1=NO[C@@H]2CN(c3cccnc3)C[C@H]12
3.7%[70.6 µM]	CC(C)CCO[C@H]1COCCN(C2CCN(C)CC2)C1
-27.8%[70.6 µM]	CC1=C[C@@H](CO)[C@H](C(C)C)C[C@H]1Cc1nnc(-c2ccc(N(C)C)cc2)o1
-2.1%	COc1ccccc1N1CCN(C(=O)Cn2c(C)cc3nc4n(c(=O)c32)CCCCC4)CC1
-3.4%	CC(=O)N1CCC2(CC1)N(CC1CC1)C(=O)CS2=O (stereo unspecified)
5.9%	CC(=O)c1c(C)nn(C(C)CC(=O)NCc2cc3n(n2)CCNC3)c1C (stereo unspecified)
5.0%	O=C(CCC1CCCC1)NCCC1CCN(C(=O)Nc2cc(F)ccc2F)CC1
3.4%	NC1CCCCN(C(=O)c2ccc3n[nH]nc3c2)C1 (stereo unspecified)
0.0%	CC(Cn1ccnc1-c1cc2n(n1)CCCNC2)N1CCN(C)CC1 (stereo unspecified)
-1.5%	COc1ccc(-c2nc(C)nc3c2CCN(C(=O)c2ccccc2F)CC3)cc1
-8.9%	CCN(Cc1noc(CC(C)C)n1)C(=O)c1ccc(C2CCCNC2)cc1 (stereo unspecified)
-23.9%	CCn1nc(C)c(C(=O)NC(C)c2cnc(-c3ccncc3)nc2C)c1C (stereo unspecified)
8.1%	CC(C)C1CN(C(=O)c2ccccc2-c2ncc[nH]2)CCC(=O)N1CC1CC1 (stereo unspecified)
-27.5%	O=C(NC1CCN(c2cc(-c3ccc(Cl)cc3)[nH]n2)C1)c1ccc(Br)o1 (stereo unspecified)
2.5%[70.6 µM]	O=c1c2nc(-c3ccccc3C(F)(F)F)ccc2ncn1C1CC1
1.6%	Cc1cncc(C(=O)N2C[C@@H](COc3ccccc3)[C@H](C(N)=O)C2)c1
5.9%	CNC(=O)c1cc[nH]c1C1CCCN(C(=O)c2cc(C3CC3)[nH]n2)C1 (stereo unspecified)
0.0%	COCCOC1CCN(C(=O)c2ccc3[nH]ccc3c2)CC1
4.3%	COc1ccc(-c2nc(C(C)C)nc3c2CCN(C(=O)C2CC2)CC3)cc1
0.2%	CC(C)CC(=O)NC1CCN(c2cn[nH]c(=O)c2)CC1
4.9%	COCCN1CCCCCC(O)c2cc(C(=O)Nc3ccc(C)cc3)ccc21 (stereo unspecified)
-2.2%	O=C(c1ccc(F)c(F)c1)N1CCC(n2cnnc2C2CC2)CC1
-2.1%	CCNC(=O)[C@@H]1C[C@H](NC(C)=O)CN1C1CCN(c2ccc(C)cc2)CC1
2.4%	Cc1c(-c2ccccc2)[nH]c2c(CNC(=O)CCn3cnnn3)cc(Cl)cc12
1.4%	Cc1ccc(C(=O)N2CCN(c3nnc4ccccn34)CC2)cc1
0.4%[70.6 µM]	Cc1cccc(OC[C@H]2C[C@@H](NC(=O)c3ccno3)[C@H](O)[C@@H]2O)n1
2.0%	COc1cccc(CNC(=O)[C@@H]2C[C@@H](O)CN2C2CCN(C(=O)COc3cccc(C)c3)CC2)c1
-10.7%	CC(=O)Nc1ccc(CN2C(=O)OC3(CCN(C(=O)c4scnc4C)CC3)C2(C)c2ccccc2)cc1 (stereo unspecified)
6.1%[70.6 µM]	COc1ccc2nc([C@H]3CCN(Cc4ccc(C(=O)O)cc4)C3)[nH]c2c1
0.8%	COc1ccccc1CN1CCC(CN(CC(C)C)C(=O)C2C=CCN2)CC1 (stereo unspecified)
-11.3%	COc1ccc2[nH]c3c(c2c1)CCNC31CCN(C(=O)c2cccnc2)CC1
-6.6%	Cc1cccc(NC(=O)CC2CCCN(c3cnn(CC4CC4)c(=O)c3)C2)c1 (stereo unspecified)
7.1%	CS(=O)(=O)N1CCc2ccc(S(=O)(=O)NCC3CCCO3)cc2C1 (stereo unspecified)
2.1%	Cc1ccc(NS(=O)(=O)c2ccccc2)c(=O)n1CC(=O)N(C)Cc1ccccc1
-1.1%	Cc1ccc(OCC(=O)c2ccc3c(c2)N(CCCC(=O)N2CCCC2)C(=O)CO3)cc1C
11.0%[70.6 µM]	CC(=O)N1CCC(N2CCOC[C@H]2c2ncc(-c3cccnc3)[nH]2)CC1

Going on with the list.
hNpr1 antagonist	SMILES
0.6%	COCCN1CC2(CCCN(Cc3ccccc3OC)C2)CCC1=O (stereo unspecified)
23.1%	COc1ccc(CNC(=O)C2CN(c3ccc(Cl)cc3)C(=O)N2)cc1 (stereo unspecified)
2.5%[70.6 µM]	C=CCNC(=O)N[C@H]1CCN(C(=O)CSC)[C@@H]1C(=O)N1CCC[C@@H]1C(N)=O
-2.2%[70.6 µM]	COCCOCC1(CNC(=O)c2cc(C)nn2C)C[C@@H](O)[C@@H](O)C1 (stereo partly specified)
1.2%[70.6 µM]	COc1ccc(-c2noc(C(=O)O)c2[C@@H](C)NC(=O)C2CCCCC2)cc1
-10.4%	COC1C(=O)N(C2CCN(C(=O)c3ccoc3)CC2)C12CCOCC2 (stereo unspecified)
-2.0%[70.6 µM]	CN1CCN(C(=O)CC[C@H]2CNC(=O)[C@@H]3[C@@H](CCN3C3CCOCC3)N2C)CC1
0.4%	CCOc1ccc(CC(=O)N2CCC(Cc3nc(C(C)C)no3)CC2)cc1OCC
5.5%	CCc1ccc(CNC(=O)C2CCCCC(=O)N2)cc1 (stereo unspecified)
8.6%	N#Cc1ccccc1CN1CCC([C@@H]2CNC[C@H]2CO)CC1
0.9%[70.6 µM]	Cc1nnc(-c2cc(-c3cccc(F)c3)ccn2)n1CCc1ccccc1
-14.6%	Cc1ccccc1NC(=O)Nc1ccnn1C1CCN(C(=O)[C@@H](N)CO)CC1
0.2%	OC1(CN2CCC(OCc3ccccn3)CC2)CNCCOC1 (stereo unspecified)
-0.5%	COc1cccc(C2Cn3nnc(-c4nc(-c5ccc(OC(F)(F)F)cc5)no4)c3CO2)c1 (stereo unspecified)
?	COc1ccc(CN2CCCn3nc(C)c(-c4ccccc4C(C)C)c32)cc1O
0.5%	O=C(NCC1(N2CCOCC2)CCCC1)c1cn(Cc2ccccc2Cl)nn1
-0.6%	O=C(CCn1nnc2ccccc21)N1CCOCC(O)(CN2CCCC2)C1 (stereo unspecified)
-0.9%	COc1ccc(F)cc1C(=O)NCc1c(C)ncc2c1CCNC2
-0.1%[70.6 µM]	C[C@H]1CCCN1C(=O)c1nnc(CNc2ccc(C(=O)O)cc2)n1-c1ccccc1
2.8%	COc1ccc(-n2nc(C)c(CCC(=O)NCC(C)C)c2Oc2ccccc2)cc1
-9.3%	O=C(COc1ccc(NC(=O)C2CC2)cn1)NCc1ccccc1F
-13.3%	Cn1c(-c2ccc(CN3CCc4[nH]cnc4C3C(=O)O)o2)nc2ccccc21 (stereo unspecified)
1.1%	CC(C)[C@@H]1CN(c2nccc(C(F)(F)F)n2)C[C@H]1NS(C)(=O)=O

This is a subset (hit frequency here may not be typical).
